Assay outcomes: PubChem, Center for Chemical Genomics, University of Michigan
TAR Tat displ = HIV-1 TAR-Tat binding disruption; HIV-1 TAR RNA, Tat peptide displacement FRET; hits give high values; z-score (test concentration not listed); hit rate 0.6% among 100,000; AID 1259389;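 further: score is relative to mean and SD of negative controls; some compounds called inactive have numbers as strong as hits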
CDC25B-CDK2 inh = human CDC25B-CDK2/CyclinA binding inhibition; hit rate 0.72% among 94,000; HTRF CDC25B-CDK2/CyclinA binding, anti-His/anti-Flag; hits give high values; z-score (no concentration beside the values); P30305+P24941; AID 1259370;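 further: score is relative to mean and SD of negative controls; strong numbers were not always called active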
Numbers without * were called inactive; . = no result given.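 How the source made its calls: active means z-score from 3 up in half or more of its runs; inactive means the rest.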

Molecule	TAR Tat displ	CDC25B-CDK2 inh
COc1ccc2c(c1)NC(c1ccc(OCC(C)C)cc1)=NC(c1ccncc1)=N2	0.28	1.11
O=C(Cc1c(C(=O)O)[nH]c2ccc(Cl)cc12)Nc1cccnc1	.	-2.09
COc1cccc(Oc2c(C(F)(F)F)oc3cc(OC)ccc3c2=O)c1	0.91	0.36
CS(=O)(=O)NNc1c(Cl)cc(Cl)cc1Cl	.	-0.7
O=C(CSc1nc2c(cnn2-c2ccccc2)c(=O)[nH]1)Nc1ccccc1F	1.74	.
Cn1nccc1NC(=O)CCC(=O)O	.	-0.59
CC(C)NC(=O)CSc1nnc(CSc2cc(C(F)(F)F)nc3ccccc23)n1C	.	-0.53
Cc1ccc2cc(CCNC(=O)Cc3cccs3)c(=O)[nH]c2c1	.	-0.01
CC(=O)c1c(C)n(-c2ccc(C)cc2C)c2ccc(O)cc12	.	0.56
Cc1csc(NC(=O)C2CCC(CNc3c(N4CCCCC4)c(=O)c3=O)CC2)n1 (configuration not stated)	1.05	-1.97
O=C(O)CSc1ncnc2c1sc1cccc(F)c12	1.22	-4.66
N=C(N)c1ccc(OCCCCCOc2ccc(C(=N)N)cc2)cc1 (tested in a mixture with another compound)	.	-1.04
Cc1cc(-c2c(C)sc(C)c2S(=O)(=O)N2CCC(N3CCCCC3)CC2)on1	-0.46	.
COc1ccc(Cl)cc1NC(=O)CSc1nn2c(=O)c(C)nnc2s1	1.43	.
O=C(CCS(=O)(=O)c1ccc2c(c1)CCN2C(=O)C1CC1)Nc1cccc(Br)c1	-0.45	.
O=C(c1ccc2c(c1)N(Cc1ccc(F)cc1)CCS2)N1CCCCC1	0.03	-0.55
CC(C)(C)c1ccc(Oc2c(C(F)(F)F)oc3cc(OCC(=O)O)ccc3c2=O)cc1	.	0.24
O=C1NC2(CCCCC2)NC2=C1CCCC2	.	-1.37
CCCc1cc(=O)oc2cc(C)c3c(C)c(C)oc3c12	.	-1.36
CC(=O)O[C@H]1CC[C@]2(C)C3CC[C@@]4(C)C(CC5O[C@@]6(CCC(C)CO6)[C@@H](C)C54)C3CC[C@@H]2C1 (some centres not stated)	1.9	.
C=CCOC(=O)C1=C(C)Nc2nc(SCC(C)C)[nH]c(=O)c2C1c1cccnc1 (configuration not stated)	2.15	-1.28
CCc1cc(Nc2ccc(Br)cc2)n2ncnc2n1	-0.69	-2.21
O=C(CN1CC(=O)Oc2ccccc21)OCC(=O)c1ccccc1	0.18	-1.02
Cc1ccnc(SCc2cc(=O)n3c(nc4ccccc43)[nH]2)n1	-1.85	1.5
CC1(C)CC(CCc2nc(=S)[nH][nH]2)C(=O)O1 (configuration not stated)	.	0.06
O=C1Cc2cc(S(=O)(=O)N3CCCCC3)cc3c2N1CCC3	1.36	.
N#Cc1cc(NC(=O)c2ccccc2)c(=O)n2c1sc1ccccc12	2.09	-1.09
c1ccc(N2CCN(c3nc4ccccc4n4cnnc34)CC2)cc1	0.97	-0.02
CCCCN(CCCC)S(=O)(=O)c1ccc2[nH]c(=O)ccc2c1	-7.63	.
C#CCSc1n[nH]c(=O)n1-c1ccc(OCc2ccccc2)cc1	.	-1.04
Fc1ccc(-n2ncc3c(NCc4ccccc4)ncnc32)cc1	0.13	.
CCc1nnc2c(Nc3cc(Cl)ccc3O)nc3ccccc3n12	0.6	.
CC1CN(C(=O)c2ccc3c(c2)OCO3)CC(C)O1 (configuration not stated)	.	0.84
O=C(c1nc2ncccn2n1)N1CCN(C(c2ccccc2)c2ccccc2)CC1	-1.59	-0.4
Cc1ccc2nc(-c3ccc(C)o3)c(Nc3ccc4c(c3)OCO4)n2c1	.	-0.28
O=c1[nH]c(CSc2nnc(-c3cccnc3)n2-c2ccccc2)nc2ccccc12	-0.06	-0.42
COc1ccc2ccnc(C3C(=O)c4ccccc4C3=O)c2c1	0.02	4.7
C=CCOC(=O)C1=C(C)NC2=C(C(=O)CCC2)C1c1cccc(OC)c1OC (configuration not stated)	1.66	-0.68
O=C(CSc1nc(-c2ccccc2)nc2cc(=O)[nH]n12)Nc1ccc(F)cc1	1.36	.
Fc1ccc(Nc2ncnc3onc(-c4ccc(Cl)cc4)c23)cc1	1.07	-1.43
CC(C)(C)OC(=O)NC1CCN(S(=O)(=O)c2ccc(Cl)cc2)CC1	.	0.56
Cc1nc(-c2csc(S(=O)(=O)NCc3ccc(Cl)cc3)c2)no1	1.95	.
CC(=O)c1ccc(Cl)c(NC(=O)Nc2ccc(Cl)cc2)c1	.	-2.99
O=C(O)CNC(=O)c1cc(C(F)(F)F)cc(C(F)(F)F)c1	.	-0.7
Cc1nnc(SCC(=O)Nc2ccccc2F)c2cc3sccc3n12	2.97	.
O=C1Nc2ccccc2S(=O)(=O)N1Cc1ccccc1	2.09	.
CCc1cc2c3c([nH]c2cc1S(=O)(=O)Nc1cccc(Br)c1)CCCC3=O	2.21	.
CCOC(=O)N1CCN(S(=O)(=O)c2c(C)cc(C)cc2C)CC1	2.01	-1.3
Fc1ccc(C2=Nc3ccccc3NC(c3cccs3)=N2)cc1	-0.9	-3.24
CCCCN(CC)CCNC(=O)c1cc2c(C)nc3ccccc3c2o1	1	0.3
COc1ccc(OC)c(-c2nc3c(c(=O)[nH]2)Cc2cc(C)ccc2O3)c1	0.5	-0.77
CC1=C(C(=O)NCCN2CCCC2)C2(CCN(S(C)(=O)=O)CC2)OC1=O	-0.24	.
Fc1ccc(Nc2ncnc3c2nc2n3CCCCC2)c(F)c1	-0.5	.
COc1ccc(-n2ncc3c(NCCC4=CCCCC4)ncnc32)cc1	1.67	.
CCN(CC)c1nn2c(=O)c(C(=O)NCCc3ccc(SC)cc3)cnc2s1	1.18	.
C=CCNc1nc2c(c(=O)n(C)c(=O)n2C)n1CCCCCC	-0.83	1.14
O=c1c(O)c(-c2ccc(O)cc2)oc2cc(O)cc(O)c12	3.6	.
Cn1c(=O)n(C)c2cc(S(=O)(=O)Nc3ccc(Br)cc3)ccc21	0.32	0.15
CCN(CC)c1c(S(=O)(=O)c2ccc(C)cc2)cnc2ccc(OC)cc12	-1.9	-0.77
Cc1ccc(-n2ncc3c2ncn2c(COc4ccc(Cl)cc4)nnc32)cc1	.	-1.69

Next compounds follow.
Molecule	TAR Tat displ	CDC25B-CDK2 inh
O=C(O)CCSc1nnc(-c2cccc(Br)c2)o1	0.27	-2.74
COC(=O)Cn1ncc2c3ccccc3n(Cc3ccccc3F)c2c1=O	-0.17	0.01
CC(C)CC(=O)Nc1nnc(S(=O)(=O)N2CCCC2)s1	1.33	-1.54
COC(=O)c1cn(C(=O)c2ccco2)c2ccccc12	-0.74	-1.32
CN(C)c1nc(Nc2cccc(Cl)c2)c2cnn(C)c2n1	2.82	.
O=C(c1cccn1-c1nnc(N2CCCCC2)s1)N1CCN(c2ccccc2)CC1	1.4	.
CCCNC(=O)C1CCCN(c2ncnc3onc(CC)c23)C1 (configuration not stated)	1.06	.
COCCn1c(SCC(=O)Nc2ccc(F)cc2F)nc2c(c1=O)SCC2	1.79	-2.13
Cc1ccc(C(CNC(=O)c2cc(=O)c3cc(Br)ccc3o2)N2CCC(C)CC2)o1 (configuration not stated)	0.63	-0.56
S=C1NCN(Cc2ccco2)CN1Cc1ccccc1	.	0.53
O=C(Nc1ncc(Cc2ccc(F)cc2)s1)c1csc2c1CCCC2	-0.03	1.64
COc1ccc(-c2cc(C(F)(F)F)n3nc(C4CC4)cc3n2)cc1	.	-1.48
O=C(O)c1cccc(Nc2cc(N3CCOCC3)c3noc4c3c2C(=O)c2ccccc2-4)c1	7*	-0.18
CCC(C)(C(=O)NC1CCCCC1)N(CC1CCCO1)C(=O)Cc1cccs1 (configuration not stated)	.	-0.08
CCCCc1ccc(NC=C(C(=O)OCC)C(=O)OCC)c(C)c1	.	-0.78
Cn1c(=O)c2c(nc(N3CCOCC3)n2Cc2cccc(Br)c2)n(C)c1=O	0.33	0.08
CCN(CC)C(=O)Cn1ncc2c1-c1cc(C)ccc1OC2	0.47	-2.53
O=C1NC2C=NN(c3ccccc3)C(=O)C2NC1=O (configuration not stated)	1.02	0.98
CC(=O)N1c2ccc(S(=O)(=O)N3CCOCC3)cc2CC1C(=O)NCCN1CCN(C)CC1 (configuration not stated)	0.51	.
Cc1nc(N2CCCC(C(=O)NCc3ccc(C)o3)C2)c2c(C)noc2n1 (configuration not stated)	0.5	.
c1ccc(CCn2c(CN3CCOCC3)nc3ccccc32)cc1	-1.53	-0.49
CCOC(=O)N1CCN(S(=O)(=O)c2cc3c(cc2Cl)NC(=O)CO3)CC1	-2.88	.
CCOC(=O)N1CCC(NC(=O)c2nn(C)c3c2CS(=O)(=O)c2ccccc2-3)CC1	2.12	-1.34
COC(=O)c1ccc(C2NC(=O)c3[nH]nc(-c4ccc(C)cc4)c32)cc1 (configuration not stated)	1.44	.
CC(C)n1c(Sc2ncc([N+](=O)[O-])s2)nc2cc(C(F)(F)F)ccc21	.	-2.66
CCOC(=O)N1CCC(Nc2c(NC3CCN(C(=O)OCC)CC3)c(=O)c2=O)CC1	1.14	-0.89
CCN(CC)c1cc2c(cc1F)c(=O)c(S(=O)(=O)c1ccc(Cl)cc1)cn2CC	0.94	.
CCc1c(C)nc(Nc2nc(C)c3cc(C)ccc3n2)[nH]c1=O	-1.47	0.08
Cc1ccc2c(c1)N(S(=O)(=O)c1ccc(CN3C(=O)c4cccnc4C3=O)cc1)CCO2	1.98	.
CC(NC(=O)Nc1ccc(Cl)cc1)c1c(-n2cccc2)sc2c1CCCC2 (configuration not stated)	-0.08	-1.26
O=c1nc2n(c3cc(Cl)ccc13)Cc1ccccc1-2	.	-1.93
CC(C)CC(NC(=O)[C@H]1CCCN1C(=O)OCc1ccccc1)C(=O)NCC(=O)NO (some centres not stated)	1.02	.
O=c1[nH]c2cc3c(cc2c(=O)n1CCc1nc(-c2ccc(Cl)cc2)no1)OCO3	0.55	.
C=CCSc1nn(CC)c2nc3c(c(=O)n12)C(C)(C)Cc1ccccc1-3	0.31	-1.02
CC(C)c1ccc(-c2cn[nH]c2N)cc1	0.71	-2.17
Cc1onc(C(=O)Nc2sc3c(c2C#N)CCC3)c1[N+](=O)[O-]	1.15	-1.03
CC1=C(C(=O)OC(C)C)C(c2cccc(Cl)c2)n2c(nc3ccccc32)N1 (configuration not stated)	2.7	-1.07
Cc1nc(N2CCCCC2)cc(N2CCN(S(=O)(=O)c3ccccc3F)CC2)n1	1.45	-0.14
COc1ccc(COC(=O)C2=C(C)NC3=C(C(=O)CCC3)C2c2cc(Cl)c(O)c(OC)c2)cc1 (configuration not stated)	0.58	0.61
CC(=O)Nc1cc2nc3[nH]c(=O)n(C)c(=O)c3nc2cc1C	-4.98	-0.04
O=C(NCc1ccc(Cl)cc1)c1ccc(Cl)c(NC2=NC3CS(=O)(=O)CC3S2)c1 (configuration not stated)	1.31	.
CCOc1ccc(CN=C2NS(=O)(=O)C(c3ccccc3)=C2C)cc1	-0.37	-7.26
CCc1nnc(NC(=O)CSc2nc(C)cc(C)c2C#N)s1	.	-4.52
CN1CCN(CCOc2cccc(Cl)c2)CC1	.	0.43
Cc1ccnc(NC(=O)C2CCN(S(=O)(=O)c3ccc4c(c3)CC(C)N4C(=O)C3CCC3)CC2)c1 (configuration not stated)	0.45	.

The final four compounds of the part before are carried over, then new ones follow:
Molecule	TAR Tat displ	CDC25B-CDK2 inh
CCOc1ccc(CN=C2NS(=O)(=O)C(c3ccccc3)=C2C)cc1	-0.37	-7.26
CCc1nnc(NC(=O)CSc2nc(C)cc(C)c2C#N)s1	.	-4.52
CN1CCN(CCOc2cccc(Cl)c2)CC1	.	0.43
Cc1ccnc(NC(=O)C2CCN(S(=O)(=O)c3ccc4c(c3)CC(C)N4C(=O)C3CCC3)CC2)c1 (configuration not stated)	0.45	.
O=C(Nc1cccc(Cl)c1)N(Cc1cccs1)c1ccccn1	1.34	-1.15
CCN(CC)CCNC(=O)c1c(O)nc2cc(C)ccn2c1=O	-0.62	-0.35
CCN(CC)c1ccc(Nc2nc(-c3sc(C)nc3C)cs2)cc1	-1.06	-4.2
Cn1c(=O)cc2c3c(c(NS(=O)(=O)c4ccc(Cl)cc4)ccc31)C(=O)c1ccccc1-2	0.34	0.27
O=C(NC(C(=O)O)C12CC3CC(CC(C3)C1)C2)c1cccs1 (configuration not stated)	.	0.12
O=c1c2ccccc2n(Cc2ccccc2)c(=O)n1Cc1nc(-c2ccccc2)no1	-0.11	.
CCN(CC)CCn1c(C)c(C)c2c1ncn1nc(-c3ccncc3)nc21	0.85	-0.38
COc1ccc(S(=O)Cc2ccc(C(=O)O)o2)cc1 (configuration not stated)	1.61	.
CC(C)CCNC(=O)c1nn(C)c2c1CS(=O)(=O)c1ccccc1-2	1.36	0.41
Cc1nc(SCC(=O)Nc2ccc3c(c2)OCCO3)c2c3c(sc2n1)CCC3	.	0.79
CCCCc1c(C)nc2ccccc2c1SCCC(=O)O	0.98	-1.83
O=C(CSc1ccc(-c2ccncc2)nn1)Nc1ccc(Cl)cc1	1.81	.
COc1ccc(C(=O)CC2(O)C(=O)N(C)c3ccccc32)cc1 (configuration not stated)	-0.78	-2.97
CCOC(=O)N1CCN(c2ccc([N+](=O)[O-])s2)CC1	5.15*	.
CC(C)S(=O)(=O)c1c(SCC#N)sc(C#N)c1N	.	-0.26
O=C1CCSc2ccc(S(=O)(=O)Nc3cc(F)ccc3F)cc2N1	0.44	.
CCOC(=O)c1nc(NCCC2=CCCCC2)c2c(C)noc2n1	0.25	.
